VDR inh = Inhibitors of the vitamin D receptor (VDR): qHTS; Vitamin D3 receptor (Homo sapiens), P11473; 400,000 tested, 0.93% active; Potency, µM, inactives show max response, negative = inhibition, actives largely listed as inhibitors; VDR-SRC2-3 peptide fluorescence polarization, 2 h; AID 504847, 2011; active = well fitted inhibition curve with a large enough effect; inconclusive = small, poorly fitted or top-dose-only effect, or another doubt; inactive = no such curve, though single readings can be large or run the other way; also: series mostly up to about 120 µM
Target sequence (P11473 whole entry, looked up): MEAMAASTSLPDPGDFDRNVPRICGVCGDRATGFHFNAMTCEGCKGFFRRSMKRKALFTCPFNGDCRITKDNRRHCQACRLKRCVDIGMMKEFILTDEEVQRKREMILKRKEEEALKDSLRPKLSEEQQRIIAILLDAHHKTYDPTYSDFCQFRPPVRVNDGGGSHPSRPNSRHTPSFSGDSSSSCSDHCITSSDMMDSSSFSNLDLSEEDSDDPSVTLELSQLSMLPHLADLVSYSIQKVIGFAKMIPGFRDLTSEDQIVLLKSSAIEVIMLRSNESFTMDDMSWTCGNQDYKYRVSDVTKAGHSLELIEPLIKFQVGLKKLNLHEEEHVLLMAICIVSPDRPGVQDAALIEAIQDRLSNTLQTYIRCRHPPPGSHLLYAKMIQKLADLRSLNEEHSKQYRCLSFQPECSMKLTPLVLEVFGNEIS
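VDR–SRC2-3 interaction, FP format. Cmpds 23 nl via pintool, brief spin, 2 h ambient incubation.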
The depositor's hits bear a star; ? = inconclusive; & = joins results of further samples; [ ] = dose if it differs, or a comment. % is scaled to controls: 0 for no effect and ±100 for the full control effect; potency is read from the fitted curve at half-maximal effect.

SMILES | VDR inh
Cc1n[nH]c(C)c1S(=O)(=O)N1CCCC(C(=O)Nc2ccc(Cl)cc2)C1 (stereo not drawn) | -5%
CCOc1ccc(NC(=O)c2cnc3sc(N4CCOCC4)nn3c2=O)cc1 | 6%
CC(C)NC(=O)N(C)C[C@H]1Oc2ccc(NC(=O)Nc3ccc4c(c3)OCO4)cc2C(=O)N([C@H](C)CO)C[C@@H]1C | -20%
COc1cccc(-c2cc(C(=O)N3CCN(Cc4ccc5c(c4)OCO5)CC3)on2)c1 | -12%
COc1cccc(N2CCN(C(=O)CN(c3ccc(C)cc3)S(=O)(=O)c3c(C)n[nH]c3C)CC2)c1 | 11%
Cc1ccc(/C=N\n2c(-c3ccccc3)n[nH]c2=S)s1 | -8%
CCN(CC)c1cc2c(cc1F)c(=O)c(S(=O)(=O)c1ccc(OC)cc1)cn2CC | 13%
Cc1cccc(-c2noc(CNC(=O)c3ccoc3C)n2)c1 | 6%
CC(C)OC(=O)/C(C#N)=C/c1ccc(-c2ccc(Cl)c(Cl)c2)o1 | -8%
O=C(c1ccc2c(c1)OCO2)C1CCCN(Cc2ccc3nsnc3c2)C1 (stereo not drawn) | 18%
COc1ccc(-c2[nH]ncc2CNC(C)CCn2cccn2)c(F)c1 (stereo not drawn) | 20%
C=CCNC(=O)c1onc(CSc2cc(C)cc(C)c2)c1C(=O)O | 12%
CCCCC(C(=O)NC1CCCC1)N(C(=O)c1snc(C(N)=O)c1N)c1ccc(F)cc1 (stereo not drawn) | -8%
O=C(C1CCCCN1S(=O)(=O)c1ccc(F)cc1)N1CCN(c2ccccc2F)CC1 (stereo not drawn) | -6%
Cc1cc(C)cc(NC(=O)C(=O)NCC2CCCO2)c1 (stereo not drawn) | -14%
Cc1c(NC(=O)c2ccc(C(C)(C)C)cc2)cccc1[N+](=O)[O-] | -12%
COc1cccc(NC(=O)C2CCC(CNS(=O)(=O)c3ccc4c(c3)CC(C)N4C(C)=O)CC2)c1 (stereo not drawn) | -9%&3%
CCN(CC)C(=O)NC1CC2CCCC(C1)N2Cc1ccccc1 (stereo not drawn) | 3%
O=C(O)c1ccc(CNCc2ccccc2Cl)cc1 | -7%
CC(=O)Nc1cccc([N+](=O)[O-])c1 | -1%
Cc1cc2nc(-c3ccc(NC(=O)c4cccnc4)cc3)oc2cc1C | -1%
CC(C)CC1(C)NC(=O)N(CC(=O)Nc2ccc3c(c2)OCCO3)C1=O (stereo not drawn) | 6%
Cc1ccc(-n2ncc3c(NCCCN4CCOCC4)ncnc32)c(C)c1 | 7%
CCCCCCCCCCCCCCCCOC[C@H](COP(=O)([O-])OCC[N+](C)(C)C)OC(=O)NC | -3%&5%
O=C1N=C(c2ccccc2)C(c2ccccc2)N1 (stereo not drawn) | -1%

Arranged by molecular weight (highest first): some entries from above.
SMILES | VDR inh
CC(C)CC1(C)NC(=O)N(CC(=O)Nc2ccc3c(c2)OCCO3)C1=O (stereo not drawn) | 6%
Cc1c(NC(=O)c2ccc(C(C)(C)C)cc2)cccc1[N+](=O)[O-] | -12%
CC(=O)Nc1cccc([N+](=O)[O-])c1 | -1%

(listing goes on)
SMILES | VDR inh
Cn1c(=O)oc2cc(S(=O)(=O)CCC(=O)Nc3ccccc3)ccc21 | 9%
O=C(CCc1ccccc1)OCC(=O)c1ccc(Br)cc1 | -2%
O=S(=O)(c1ccc(F)cc1)N1CCC(N2CCCCCC2)CC1 | 7%
COc1ccccc1N1CCN(C(=O)/C=C/c2ccc3c(c2)OCO3)CC1 | 8%
CC(=O)Nc1c(Br)cc(N2C(=O)CCC2=O)cc1Br | -3%
CCOCCCNC(=O)CN(c1cc([N+](=O)[O-])ccc1OC)S(C)(=O)=O | 15%
COc1ccc(/C=N/N2C(C)CCCC2C)cc1OC (stereo not drawn) | 0%
O=C(CSc1ccc(-c2ccco2)nn1)NCc1ccccc1Cl | -9%
Cc1ccc(NC(=O)CN2C(=O)NC3(CCc4ccccc43)C2=O)cc1S(=O)(=O)N1CCCCC1 (stereo not drawn) | 6%
Cc1cc(Nc2ccc3c(c2)OCCO3)c2cc(Cl)ccc2n1 | 4%
Cc1ccc(C(=O)NCC(c2cccs2)S(=O)(=O)c2ccccc2)cc1C (stereo not drawn) | 12%
C=CCOC(=O)COc1ccc2c(C)c(C)c(=O)oc2c1C | 11%
CNc1ccc2c3c(cccc13)C(=O)N(C)C2=O | 15%
Cc1c(C)n(-c2ccc(Cl)cc2)c2ncnc(N)c12 | -13%
COc1ccc2[nH]c(=O)c(CN(CCCN(C)C)C(=O)Nc3ccc(F)cc3)cc2c1 | 5%
COc1ccc(NC(=O)CCSc2nnc(C)s2)cc1 | 13%
COc1ccc(N(CC(=O)NCc2ccco2)C(=O)CCC(=O)Nc2nccs2)c(OC)c1 | 4%
COc1cc2cc(C[C@H](C)O)oc(=O)c2cc1OC | 1%
O=C(NCCCN1CCCC1=O)c1cccc(S(=O)(=O)Nc2ccc(F)cc2)c1 | 12%
C[C@@]12C=Cc3occc3[C@H]1CC[C@@]13C[C@@H](CC[C@H]12)[C@@](O)(CO)C3 | ?
COc1ccccc1C(=O)NCc1nnc(SC(C)C(=O)Nc2nccs2)n1C (stereo not drawn) | 15%
Cc1cccc(NC(=O)Nc2ccc(F)cc2)n1 | 31%&-11%[activator]
CCOCCCNC(=O)C(NC(=O)c1ccccc1O)c1ccc(C)cc1 (stereo not drawn) | 8%
COc1ccc(C(=O)Nc2cc([N+](=O)[O-])ccc2N2CCCC2)cc1 | -5%
CNC(=O)c1cccc(NC(=O)C(C)c2ccc3cc(OC)ccc3c2)c1 (stereo not drawn) | 5%
(listing goes on)
SMILES | VDR inh
Cc1ccc(S(=O)(=O)N/N=C/c2ccc(C(=O)O)cc2)cc1 | 19%
COC(=O)CCC(=O)OC1(C)C(=O)C2=CN(C3CCCC3)C(c3ccc(OC)cc3)=CC2=C(Br)C1=O (stereo not drawn) | ?
O=C1CN(C(=O)COC(=O)CCSc2ccccc2Cl)c2ccccc2N1 | -6%
Cc1cc(C)c(CN2CCC(n3nccc3NC(=O)CCOc3ccccc3)CC2)cc1C | -11%
CC(NC(=O)COC(=O)C1CCN(S(=O)(=O)c2ccccc2C(F)(F)F)CC1)c1ccccc1 (stereo not drawn) | 3%
Cc1ccccc1NC(=O)N1c2ccccc2CC1C (stereo not drawn) | -11%
O=C1C=C(c2ccccc2)CCC1 | -14%&-1%
CCOC(=O)C1=C(C)NC(=O)NC1c1ccco1 (stereo not drawn) | 5%
CC1CCC(NC(=O)CCNS(=O)(=O)c2ccc3c(c2)CCC(=O)N3)CC1 (stereo not drawn) | -4%
CCCCSc1nnc2n(CCc3ccccc3)c(=O)c3c4c(sc3n12)COC(C)(C)C4 | 20%
COCOc1c2c(c(OCOC)c3c(OCOC)cccc13)/C(=N/NS(C)(=O)=O)C1=C2CCCC1 | -13%
COc1ccc(CCNc2ccncn2)cc1 | -2%
Cc1cccc(CC(=O)N2CCCC2)c1 | 2%
CC(=O)N1CCc2c(sc3c2c(=O)n(-c2ccccc2)c(=O)n3CC(=O)c2ccc(F)cc2)C1 | 3%
O=C(Nc1cccc(-c2cn3cccnc3n2)c1)c1ccc2c(c1)OCO2 | 7%
Cc1cccc(C(=O)OCC(=O)NCC2CCCO2)c1O (stereo not drawn) | 15%
CCOc1ccc(/C=N/NC(=O)CN2CCSCC2)cc1 | -5%
COc1ccc(C(=O)/C=C(/C)N(C)C)cc1 | 13%
Cc1ccc2nc(NC(=O)CNS(=O)(=O)c3ccc(Br)s3)sc2c1 | 14%
Cc1ccc(C)c(N2CCN(S(=O)(=O)c3ccc(C(=O)N(C)C)s3)CC2)c1 | 14%
CC1(C)OCC([C@H](O)C2=CCCCC2=O)CO1 | 12%
Cc1ccc2c(=O)cc(C(=O)Nc3ccc(S(=O)(=O)N(C)Cc4ccccc4)cc3)oc2c1 | 2%
Cc1ccccc1Cn1cc(NC(=O)c2cc(-c3ccc(Cl)cc3)on2)cn1 | 0%
CCOc1ccc(Cl)cc1S(=O)(=O)N1CCC(C(=O)NCc2ccco2)CC1 | -6%
Cc1ccc(OCCCn2c(CCNC(=O)C3CCCCC3)nc3ccccc32)c(C)c1 | 17%

Retrieved by compound from above:
SMILES | VDR inh
COC(=O)CCC(=O)OC1(C)C(=O)C2=CN(C3CCCC3)C(c3ccc(OC)cc3)=CC2=C(Br)C1=O (stereo not drawn) | ?
Cc1cccc(CC(=O)N2CCCC2)c1 | 2%
CC(NC(=O)COC(=O)C1CCN(S(=O)(=O)c2ccccc2C(F)(F)F)CC1)c1ccccc1 (stereo not drawn) | 3%

Some values from the list:
CC(NC(=O)COC(=O)C1CCN(S(=O)(=O)c2ccccc2C(F)(F)F)CC1)c1ccccc1 (stereo not drawn) in VDR inh has 3%
CCOc1ccc(Cl)cc1S(=O)(=O)N1CCC(C(=O)NCc2ccco2)CC1 in VDR inh has -6%

The list goes on:
SMILES | VDR inh
Cc1cc(N/N=C/c2ccc(O)cc2)nc(NS(=O)(=O)c2ccccc2)n1 | -4%
Cc1ccccc1Cn1ccc(NC(=O)c2cnn3cccnc23)n1 | 9%
Cc1ccccc1NC(=S)NC(=O)CCc1ccccc1 | -2%
Cc1ccc(C)c(Nc2nnc(-n3nc(C)cc3C)c3ccccc23)c1 | -16%
CC(C)C(O)(C#CCN1CCCCCC1)c1ccccc1 (stereo not drawn) | 1%
CC1Cc2ccccc2N1C(=O)c1cccnc1 (stereo not drawn) | -2%
Cc1ccc(S(=O)(=O)N2CCC(C(=O)NNS(=O)(=O)c3ccc(Cl)cc3)CC2)cc1 | 11%
Cc1ccc(S(=O)(=O)NCCC(=O)NCc2ccccn2)cc1 | -9%
Cc1c(NC(=O)C(C)OC(=O)Cc2ccc(F)cc2)c(=O)n(-c2ccccc2)n1C (stereo not drawn) | -6%
COc1ccc(C(CNC(=O)c2cccc(S(=O)(=O)N3CCCC(C)C3)c2)N(C)C)cc1 (stereo not drawn) | -5%
O=C(CCC1N=C2c3ccccc3N=C(SCc3cccc(Cl)c3)N2C1=O)NCc1ccco1 (stereo not drawn) | 7%
O=S1(=O)C=CC(Sc2nc3ccccc3[nH]2)C1 (stereo not drawn) | -5%
CC(=O)Nc1ccc(NC(=O)C(=O)N/N=C/c2cccnc2)cc1 | ?
COc1ccc(CC(=O)N/N=C/c2ccc(-c3cccc(C(=O)O)c3)o2)cc1OC | -11%
Cc1c(Cl)c([N+](=O)[O-])nn1CC(=O)NCc1ccc(Cl)cc1 | -22%
Cn1c(CO)c(-c2ccccc2)c2cc([N+](=O)[O-])ccc21 | 15%
O=C(COc1ccccc1/C=C1\SC(=O)NC1=O)Nc1ccc(F)cc1 | -20%
CCCCn1c(N)c(N(CCOC)C(=O)c2ccc(N3CCCC3=O)cc2)c(=O)[nH]c1=O | 13%
CCC(C)c1c(O)nc(SCC(=O)N2CCCCCC2)[nH]c1=O (stereo not drawn) | 5%
COc1cc2c(cc1OC)C(C)N(C(=O)Cc1ccc(C(F)(F)F)cc1)CC2 (stereo not drawn) | 6%
C=C(C)CSc1nnc(-c2ccccc2)n1N | -16%
C#CCOc1c(Cl)cc(/C=C2/C(=O)ON=C2C)cc1OCC | ?
Fc1ccccc1N1CCN(Cc2cccnc2)CC1 | 0%
O=C1C(c2ccc(F)cc2)N(Cc2ccc3c(c2)OCO3)C(=O)CN1C1CCCCC1 (stereo not drawn) | 0%
COc1cccc(C(c2sc3nc(-c4ccco4)nn3c2O)N2CCN(c3ccccc3F)CC2)c1 (stereo not drawn) | 19%

Structural class: the entries above with a thiophene ring, fused or not (six)
SMILES | VDR inh
Cc1ccc(/C=N\n2c(-c3ccccc3)n[nH]c2=S)s1 | -8%
Cc1ccc(C(=O)NCC(c2cccs2)S(=O)(=O)c2ccccc2)cc1C (stereo not drawn) | 12%
CCCCSc1nnc2n(CCc3ccccc3)c(=O)c3c4c(sc3n12)COC(C)(C)C4 | 20%
CC(=O)N1CCc2c(sc3c2c(=O)n(-c2ccccc2)c(=O)n3CC(=O)c2ccc(F)cc2)C1 | 3%
Cc1ccc2nc(NC(=O)CNS(=O)(=O)c3ccc(Br)s3)sc2c1 | 14%
Cc1ccc(C)c(N2CCN(S(=O)(=O)c3ccc(C(=O)N(C)C)s3)CC2)c1 | 14%

Next section
SMILES | VDR inh
Cc1nnc(SCc2ccc(CC(=O)O)cc2)o1 | 10%
CCOc1ccc(NC(=O)CN(C)C(=O)c2cc(-c3cccs3)nn2-c2ccccc2)cc1OCC | -10%
Cc1ccc(Cc2nnc3n(-c4ccccc4)nc(C(=O)c4ccccc4)n3c2=O)cc1 | 19%
CCCCCCCCCCCCN1[C@@H](CC(=O)O)c2cc(F)ccc2S1(=O)=O | ?
COc1cc(C)c(NC(=O)COc2ccc3c(c2)CCC3)cc1OC | -2%
Cc1ccc(C)c(S(=O)(=O)N2CCN(C(=O)Cc3ccc(S(=O)(=O)N4CCOCC4)s3)CC2)c1 | -20%
CCc1ccc(S(=O)(=O)N/N=C\c2cn(CC(N)=O)c3ccccc23)cc1 | 18%
COC(=O)c1c(NC(=O)c2ccccc2)sc2c1CC(C)(C)NC2(C)C | ?
Cc1ccc(Nc2cc(C)c(C#N)c3nc4ccccc4n23)c(C)c1 | -7%
Cc1ccc(C(=O)COC(=O)c2nc(Cl)ccc2Cl)cc1 | -8%
CCc1nn(CC(=O)Nc2ccc(Br)c(C)c2)c(=N)s1 | -3%
Cc1ccccc1NS(=O)(=O)c1ccc(C(=O)N2CC(C)OC(C)C2)cc1 (stereo not drawn) | 9%
COc1ccc(C2=NN(C(N)=S)C(c3ccccc3)C2)cc1 (stereo not drawn) | -8%
CCCCCc1ccc(-c2nnc(N)s2)cc1 | -12%
Nc1ccc(N2CCCCC2)c(S(=O)(=O)Nc2ccc(Cl)cc2)c1 | -20%
O=C1CCN(CCc2ccccc2)CCN1[C@H](CO)Cc1ccccc1 | -21%
O=C(O)CC(C(=O)Nc1ccc(Cl)c(Cl)c1)C1CCCO1 (stereo not drawn) | 0%

Screens: PubChem BioAssay, National Center for Advancing Translational Sciences (NCATS)

Some of the compounds tested. The share of hits here may be higher or lower than overall.
